Cruzain Triton – cruzain (T. cruzi) inhibition with detergent; purified cruzain, Z-FR-AMC fluorescence, 0.01% Triton; Potency, µM, for the others: max response, negative = inhibition, actives largely listed as inhibitors; 200,000 compounds, 0.43% hits; AID 1478;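 note: plate controls were neutral wells for no effect and buffer without enzyme for full effect; nearly all actives have a fitted effect of over 40% in size; top concentration of the series not given in the record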
Target sequence (P25779 123-467 limits assumed): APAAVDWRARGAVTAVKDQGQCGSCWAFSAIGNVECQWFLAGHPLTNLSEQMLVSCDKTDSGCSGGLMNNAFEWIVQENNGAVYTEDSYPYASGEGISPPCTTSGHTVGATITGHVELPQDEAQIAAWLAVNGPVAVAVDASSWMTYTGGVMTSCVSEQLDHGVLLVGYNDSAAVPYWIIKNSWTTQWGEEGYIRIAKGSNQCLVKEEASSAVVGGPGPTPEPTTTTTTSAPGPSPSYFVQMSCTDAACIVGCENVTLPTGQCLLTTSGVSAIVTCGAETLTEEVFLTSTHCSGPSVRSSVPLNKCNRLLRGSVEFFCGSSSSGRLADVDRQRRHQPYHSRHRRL
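Read-out: AMC fluorescence (360 nm excitation, 450 nm emission), four reads over 2 min, first-to-third difference used. Conditions: cruzain 1.5 nM, Z-FR-AMC 2 uM, pH 5.5 acetate, 5 mM DTT, 0.01% Triton X-100.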
NS1 function inh – blocks influenza NS1 protein function; 270,000 compounds, 0.4% hits; AID 2326; Potency, µM (doses to about 46.1 µM), for inactives: at the top dose activity, positive = more growth; S. cerevisiae slowed by influenza A NS1, growth recovery by OD600; active means well fitted rising curve with a large enough effect; inconclusive means small, poorly fitted or top-dose-only effect; inactive means no such curve, though single readings can be large or run the other way; note: nearly all actives have a fitted effect of over 50% in size
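Read-out: OD600 growth recovery of NS1-expressing budding yeast. Cells grown overnight at 30C in -URA glucose medium, washed, resuspended and diluted 1:100 in 2% galactose assay medium, pH 6.0. Same strain lacking NS1 served as positive control.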
Cruzain noTriton – inhibitors of Trypanosoma cruzi cruzain without detergent; P25779; purified cruzain, Z-FR-AMC fluorescence, no detergent; 200,000 compounds, 2.3% hits; AID 1476; Potency, µM, for the others: max response, negative = inhibition, most hits filed as inhibitors;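 note: plate controls were enzyme without inhibitor for no effect and buffer without enzyme for full effect; nearly all actives have a fitted effect of over 40% in size; top concentration of the series not given in the record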
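Purified cruzain at 1.5 nM, pre-incubated 15 min with compound at room temperature in 100 mM sodium acetate pH 5.5, 5 mM DTT, 0.00005% Triton X-100. Reaction started with 2 uM Z-FR-AMC; AMC fluorescence increase over 60 s gives rate.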
* hit, by the source's call; ? = inconclusive; · = no result given; & = joins results of further samples. Unless noted, calls come from the whole dose curve; as a rule, active = well fitted curve in the direction sought with a large enough effect; inconclusive = small, poorly fitted or top-dose-only effect, or another doubt; inactive = no such curve, though single readings can be large; an effect the other way counts as inactive or inconclusive. Potency is the fitted concentration of half-maximal effect. These rows are one share of the data; count on the stated rates, not on these rows.

Sequence of screens – Cruzain Triton | NS1 function inh | Cruzain noTriton
1: CC(C)C[C@@H](CC(=O)N[C@H](CC(=O)N[C@@H]1CCNC[C@H]1C(=O)N[C@H](CC(=O)N[C@@H](CCC(=O)O)CC(=O)O)Cc1ccccc1)C(C)C)NC(=O)[C@@H]1CCCC[C@H]1N
→ 6.4% | · | 10%
2: COC(=O)[C@@]1(Cc2ccccc2)[C@H]2c3cc(C(=O)N4CCCC4)[nH]c3C[C@H]2CN1C(=O)c1ccccc1
→ 4.6% | · | -11%
3: CC1(OC(=O)c2ccco2)C(=O)C2=COC(C3CC3)=CC2=C(Br)C1=O (stereo not drawn)
→ 2.9% | · | 8%
4: CC(=O)[C@]1(O)CCC2C3C=C(Cl)C4=CC(=O)C5CC5[C@@]4(C)C3CC[C@]21C (stereo partly drawn)
→ -0.2% | · | 10%
5: COC(=O)c1ccc(C(NC(=O)OCc2ccccc2)/C(F)=C/[C@@H](C)C(=O)NCc2cc(C)on2)cc1 (stereo partly drawn)
→ 0.2% | · | 4%
6: Cc1ccc(S(=O)(=O)COCCN2CCN(S(=O)(=O)c3ccc(C)cc3)CCC2=O)cc1
→ 1.6% | · | -11%
7: C=CCC1CCC(=O)N2CCCC12 (stereo not drawn)
→ 2.0% | · | -3%
8: O=C(Nc1ccc(O)c2c(=O)cc(-c3ccccc3Cl)oc12)c1ccc(Br)cc1
→ -0.1% | · | ?
9: C=C(CC1(C(C)NP(=O)(c2ccccc2)c2ccccc2)CC1)c1ccccc1 (stereo not drawn)
→ -9.6% | · | 26%
10: COc1ccc(C2=CC3=C(Br)C(=O)C(C)(OC(=O)CCc4ccccc4)C(=O)C3=CO2)cc1 (stereo not drawn)
→ -4.7% | · | 0%

Sequence of screens – Cruzain Triton | NS1 function inh | Cruzain noTriton
11: CCC(=O)OCC(=O)[C@@]1(OC(=O)CC)[C@@H](C)C[C@@H]2[C@H]3CCC4=CC(=O)C=C[C@]4(C)[C@@]3(F)[C@@H](O)C[C@@]21C
→ 0.6% | · | ?
12: CCCCC/C=C\C/C=C\C=C\[C@@H](O)C/C=C\CCCC(=O)O
→ 1.2% | · | 1%
13: COC(=O)C1(CC(C)C)C=C2C(=C(C(C)C)C(=O)C2C)CN1 (stereo not drawn)
→ 0.3% | · | -7%
14: Cc1cccc(Br)c1
→ 1.1% | · | -13%
15: CCCn1c(-c2ccc(F)cc2)nc2c(NCCN3CCSCC3)nc(C)nc21
→ 1.3% | · | 9%
16: CCc1cccc2c(-c3ccccc3)c3c(nc12)OCC3
→ -12% | · | 6%
17: COc1cc2c(C(=O)c3ccccc3)c3c4c(cc(OC)c(OC)c4c2cc1OC)CCN3C
→ 4.1% | · | 0%
18: CCOC(=O)C1OC1(C)c1ccccc1 (stereo not drawn)
→ 3.7% | · | 7%
19: Nc1ccc(Cl)cc1N
→ -3.8% | · | -20%
20: c1ccc(SCCSc2ccccc2)cc1
→ -0.2% | · | -4%

Sequence of screens – Cruzain Triton | NS1 function inh | Cruzain noTriton
21: C[C@@H](O)[C@H]1C(=O)N2C(C(=O)O)=C(S[C@@H]3CN[C@H](C(=O)N(C)C)C3)[C@H](C)[C@H]12
→ -5.4% | · | 4%
22: CC1C2CCC3C4CC=C5CC(N(C)C)CC[C@@]5(C)C4CC[C@@]32CN1C (stereo partly drawn)
→ 2.6% | · | -1%
23: CO[C@@H]1[C@@H]2OP(=O)(O)OC[C@H]2O[C@H]1n1c(Sc2ccc(Cl)cc2)nc2c(N)ncnc21
→ 6.9% | · | 6%
24: COCOc1cc(OC)ccc1C(=O)/C=C/c1cccc(C(F)(F)F)c1
→ -1.3% | · | 1%
25: OCCN(CCO)c1ncnc2nc[nH]c12
→ 3.6% | 0% | 0%
26: N=C(N)C(N=Nc1ccccc1)C(=N)N (stereo not drawn)
→ 3.5% | -4% | -1%
27: CN(C)CCCN1CCC2(CCC(C(C)(C)C)CC2)CC1
→ 1.6% | -8% | 3%
28: O[C@H](COc1ccccc1)CN1CCCCC1
→ 2.3% | 1% | -3%
29: O=C(O)/C(Cc1ccc([N+](=O)[O-])cc1)=N/O
→ 2.9% | -1% | -8%
30: COc1ccc2c(c1)Cc1cc(N=[N+]([O-])c3ccc4c(c3)Cc3cc(OC)ccc3-4)ccc1-2
→ -0.2% | 1% | -10%

Sequence of screens – Cruzain Triton | NS1 function inh | Cruzain noTriton
31: NC1(P(=O)(O)O)CCCCC1
→ 2.4% | -1% | -3%
32: CCC1=C(C[C@H]2NCCc3cc(OC)c(OC)cc32)C[C@H]2c3ccccc3CCN2C1
→ -0.8% | -6% | -6%
33: CC1(C)[C@@H]2CC[C@]1(C)[C@@H](OC(=O)CSC#N)C2
→ 2.8% | 0% | -1%
34: c1cncc(CNCc2cccnc2)c1
→ 8.6% | 3% | 8%
35: O=C(O)c1cc(N=Nc2ccc([N+](=O)[O-])cc2)ccc1O
→ -7.7%&-11% | -4% | -8%&-15%
36: c1ccc(CCc2cccnc2)nc1
→ -1.3% | -4% | -4%
37: CC[C@@]12CCCN3CCc4c(n(c5ccccc45)C(=O)C1)[C@H]32
→ 1.4%&0.9% | 3% | 2%&-6%
38: C[C@H](CCC(=O)O)[C@H]1CC[C@]2(C)[C@@H]3C(=O)C[C@H]4C(C)(C)[C@@H](O)CC[C@]4(C)[C@H]3C(=O)C[C@@]12C
→ -0.5% | 0% | 0%
39: CC(C)[C@@H](Br)C(=O)NCC(=O)O
→ -2.9% | 0% | 7%
40: C[N+](C)(C)CCN[N@@+]1(C)CCCc2ccccc21
→ -0.1% | 3% | 3%

Sequence of screens – Cruzain Triton | NS1 function inh | Cruzain noTriton
41: O=[N+]([O-])c1ccc2c(c1)Cc1cc(N=Cc3ccc4c(c3)OCO4)ccc1-2
→ -0.6% | 0% | -3%
42: Cc1cc(C(=O)CSC(=S)SC(C)(C)C)ccc1Cl
→ 4.0% | -7% | -13%
43: CC(C)N(CC(=O)O)CC(=O)O
→ -2.7% | 2% | 6%
44: Cc1ccc(S(=O)(=O)NC(=O)OC23COCN2COC3)cc1
→ 1.4% | -8% | 1%
45: Cc1cc2sc(C)[n+](CCCOS(=O)(=O)O)c2cc1C
→ -0.4% | -3% | 16%
46: Cc1ccc(S(=O)(=O)N[C@H](CN)C(=O)O)cc1
→ 1.5% | -1% | 3%
47: O=C(c1nc2ccc([N+](=O)[O-])cc2[nH]c1=O)[C@@H](O)c1ccc2c(c1)OCO2
→ -0.3% | -11% | -5%
48: O=[As](O)(O)c1ccc(NCc2ccccc2)cc1
→ 2.4% | 1% | 3%
49: O=S(=O)(Nc1nccs1)c1ccc([As](=O)(O)O)cc1
→ 0.5% | 0% | 6%
50: Cc1cc(Cl)ccc1OCC(=O)Nc1nc(N)nc(N)n1
→ -0.1% | -4% | 3%

Whole records, quoted from the list. Order of values: Cruzain Triton	NS1 function inh	Cruzain noTriton
Record of Cc1cc2sc(C)[n+](CCCOS(=O)(=O)O)c2cc1C → -0.4%	-3%	16%
Record of CC(C)N(CC(=O)O)CC(=O)O → -2.7%	2%	6%
Record of O=[N+]([O-])c1ccc2c(c1)Cc1cc(N=Cc3ccc4c(c3)OCO4)ccc1-2 → -0.6%	0%	-3%

An excerpt from above, limited to Cruzain noTriton:
nr | smiles | Cruzain noTriton
4 | CC(=O)[C@]1(O)CCC2C3C=C(Cl)C4=CC(=O)C5CC5[C@@]4(C)C3CC[C@]21C (stereo partly drawn) | 10%
5 | COC(=O)c1ccc(C(NC(=O)OCc2ccccc2)/C(F)=C/[C@@H](C)C(=O)NCc2cc(C)on2)cc1 (stereo partly drawn) | 4%
6 | Cc1ccc(S(=O)(=O)COCCN2CCN(S(=O)(=O)c3ccc(C)cc3)CCC2=O)cc1 | -11%
7 | C=CCC1CCC(=O)N2CCCC12 (stereo not drawn) | -3%
8 | O=C(Nc1ccc(O)c2c(=O)cc(-c3ccccc3Cl)oc12)c1ccc(Br)cc1 | ?

(listing goes on)
Sequence of screens – Cruzain Triton | NS1 function inh | Cruzain noTriton
51: Cc1ccc(C2(c3ccc(C)c(O)c3C)CCN(C)CC2)c(C)c1O
→ 0.4% | -3% | -3%
52: Nc1nc2c(ncn2[C@@H]2C=C[C@@H](CO)C2)c(=O)[nH]1
→ 2.7% | 3% | 3%
53: C[C@@]12Cc3cnc(-c4ccccc4)nc3C[C@@H]1CC[C@@H]1[C@H]3CC[C@@](C)(O)[C@]3(C)CC[C@@H]12
→ -3.1% | -5% | -2%
54: CC1=NCC[N@@+]1(CCc1ccccc1)Cc1ccccc1
→ 5.8% | 0% | 3%
55: O=C(O)[C@@H]1[C@@H]2O[C@H]([C@@H](Br)[C@H]2Br)[C@H]1C(=O)O
→ 5.5% | 3% | 4%
56: C[C@@]1(C(=O)O)CCC[C@@H]1C(=O)O
→ 1.9% | -1% | 11%
57: Clc1ccc(/C=C\c2nc(Cl)c(-c3ccc(Cl)cc3)c(Cl)n2)cc1
→ 2.3% | -8% | -9%
58: NNC(=O)[C@@H](O)[C@H](O)[C@H](O)CO
→ 3.9% | -3% | 7%
59: NCCOc1ccccn1
→ 3.6% | 13% | -2%
60: COc1cc(C2SCCCCCCCCCCSC(c3ccc(O)c(OC)c3)SCCCCCCCCCCS2)ccc1O (stereo not drawn)
→ -0.9% | -12% | -7%

Sequence of screens – Cruzain Triton | NS1 function inh | Cruzain noTriton
61: CC1(C)N=C(N)N=C(N)N1c1cccc(CSc2ccccc2)c1
→ -2.2% | 8% | -7%
62: N#C[C@@H](N=Nc1ccccc1C(=O)O)C(N)=O
→ -5.4% | 0% | 8%
63: COc1cc(CN2CCCCC2)cc2cc(C(=O)O)c(=O)oc12
→ 5.3% | -8% | 7%
64: O=C(O)[C@H](C1NCCS1)N1C(=O)c2ccccc2C1=O (stereo partly drawn)
→ -0.4% | -4% | 8%
65: CCNC(C)(C)[C@@H](SS)c1ccc(Br)cc1
→ 2.1% | -8% | -12%
66: c1cc(CCN2CCCCC2)ccn1
→ 5.5% | 0% | -1%
67: Cn1c(=O)c2[nH]c(/N=N\N3CCN(CCO)CC3)nc2n(C)c1=O
→ 4.3% | -5% | -1%
68: Oc1ccc(Cc2nccc3cc(O)c(O)cc23)cc1O
→ -0.6% | -5% | 2%
69: CC1=C/C(=C(/c2ccc(O)c(C)c2)c2ccccc2C(=O)O)C=CC1=O
→ -7.0% | 15% | -1%
70: Nc1ccn([C@@H]2O[C@H](COC(=O)C34CC5CC(CC(C5)C3)C4)[C@@H](O)[C@@H]2O)c(=O)n1
→ 0.5% | -3% | 2%

Sequence of screens – Cruzain Triton | NS1 function inh | Cruzain noTriton
71: Nc1nc(Cl)cc(NCCO)n1
→ 1.2% | -4% | 0%
72: O=C(O)CSc1ccc(N=C=S)cc1
→ 1.9% | 0% | 5%
73: CC[C@](N)(C(=O)O)C(C)C
→ 3.6% | 0% | 24%
74: C[N+](C)(C)/N=C\c1ccc(O)c(O)c1
→ 0.3% | -3% | 14%
75: c1ccc([C@H](CCN2CCCC2)c2ccccn2)cc1
→ 2.2% | 1% | 5%
76: O=C(O)Cc1ccc([N+](=O)[O-])cc1[N+](=O)[O-]
→ 2.1% | 1% | -12%
77: CC1(C)[C@@H]2CC[C@]1(C)[C@@H](OC(=O)/C=C\c1ccccc1)C2
→ 1.0% | -17% | -11%
78: O[C@H]([C@H](O)[C@@H](O)c1nc2ccccc2[nH]1)[C@@H](O)c1nc2ccccc2[nH]1
→ 1.4% | -8% | 5%
79: CN(C)c1ccccc1CN1CCCN(Cc2ccccc2N(C)C)C1c1ccncc1
→ -1.0% | -3% | 1%
80: CC(C)C1O[C@H](/C=C\c2ccccc2)OCC1(C)C (stereo partly drawn)
→ -0.6% | 3% | -2%

Sequence of screens – Cruzain Triton | NS1 function inh | Cruzain noTriton
81: Nc1nc2c(c(=O)[nH]1)N[C@H](CCNc1ccc(C(=O)O)cc1)CN2
→ -3.7% | 0% | 3%
82: CSc1ccc(NC(=O)[C@H]2CCCC[C@@H]2C(=O)O)cc1
→ -4.1% | -1% | 5%
83: Cc1nc2ccccc2cc1C[N+]12CN3CN(CN(C3)C1)C2
→ 3.3% | -6% | -8%
84: CC[C@@H](Nc1ncnc2nc[nH]c12)C(=O)O
→ 0.7% | -3% | 11%

Compound activity deposited in PubChem BioAssay by National Center for Advancing Translational Sciences (NCATS).
